Rango release inh: qHTS Assay for Inhibitors of RanGTP induced Rango (Ran-regulated importin-beta cargo) - Importin beta complex dissociation. actives 0.071% (n = 340,000). Snurportin-1 (Homo sapiens) + GTP-binding nuclear protein Ran (Homo sapiens) + Importin …. Potency, µM (doses to about 46.1 µM), inactives show at the top dose activity change, negative = inhibition. Biochemical FRET Rango-importin beta, RanGTP-induced dissociation; active means falling FRET ratio curve, often poorly fitted, with flat reads before Ran was added; inconclusive means other falling curves, or compound fluorescence or quenching; inactive means flat or rising ratio curve;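 also: potency is read from the fitted curve at half-maximal effect; % of control where 0% means no effect; nearly all actives have a fitted effect of over 45% in size; -100% = wells without RanGTP and RCC1; the record marks most hits as doubtful in a second field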
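Quantitative HTS using a FRET biosensor: 0.1 uM Rango, 0.25 uM importin beta, 0.6 uM Ran, 2 mM GTP, 0.2 uM RCC1 final, PBS with DTT, Tween-20 and BSA. Post-read taken 45 min after Ran addition.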
GLA inh pH 4.5: qHTS Assay for Inhibitors of Human alpha-Galactosidase at pH 4.5; Alpha-galactosidase A (Homo sapiens), P06280; purified enzyme, 4-MU-alpha-Gal fluorescence, pH 4.5; activity change, negative = inhibition, % at 105 µM; 230,000 tested, under 10 active; AID 1467, 2008; inconclusive = small, poorly fitted or top-dose-only inhibition, or a rising curve; inactive = flat fitted curve, though single readings scatter; no compound was filed as active;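 also: 0% = full activity with enzyme and -100% = basal without enzyme; dose as in the result columns while the protocol names 77 µM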
Rango complex inh: qHTS Assay for Inhibitors of Rango (Ran-regulated importin-beta cargo) - Importin beta complex formation; Importin subunit beta-1 (Homo sapiens), Q14974; Rango CFP/YFP FRET sensor + importin beta, 45 min; Potency, µM (top dose mostly 92.2 µM), without a hit: top-dose inhibition of complex formation; actives 0.031% (n = 340,000); active = rising FRET ratio curve, often small or poorly fitted; inconclusive = mostly compound fluorescence or quenching in the first reads; inactive = flat curves in all reads;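 also: potency is read from the fitted curve at half-maximal effect; 0% = DMSO wells and 100% = buffer wells lacking importin beta; nearly all actives have a fitted effect of over 15% in size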
Target sequence (Q14974 whole entry, looked up): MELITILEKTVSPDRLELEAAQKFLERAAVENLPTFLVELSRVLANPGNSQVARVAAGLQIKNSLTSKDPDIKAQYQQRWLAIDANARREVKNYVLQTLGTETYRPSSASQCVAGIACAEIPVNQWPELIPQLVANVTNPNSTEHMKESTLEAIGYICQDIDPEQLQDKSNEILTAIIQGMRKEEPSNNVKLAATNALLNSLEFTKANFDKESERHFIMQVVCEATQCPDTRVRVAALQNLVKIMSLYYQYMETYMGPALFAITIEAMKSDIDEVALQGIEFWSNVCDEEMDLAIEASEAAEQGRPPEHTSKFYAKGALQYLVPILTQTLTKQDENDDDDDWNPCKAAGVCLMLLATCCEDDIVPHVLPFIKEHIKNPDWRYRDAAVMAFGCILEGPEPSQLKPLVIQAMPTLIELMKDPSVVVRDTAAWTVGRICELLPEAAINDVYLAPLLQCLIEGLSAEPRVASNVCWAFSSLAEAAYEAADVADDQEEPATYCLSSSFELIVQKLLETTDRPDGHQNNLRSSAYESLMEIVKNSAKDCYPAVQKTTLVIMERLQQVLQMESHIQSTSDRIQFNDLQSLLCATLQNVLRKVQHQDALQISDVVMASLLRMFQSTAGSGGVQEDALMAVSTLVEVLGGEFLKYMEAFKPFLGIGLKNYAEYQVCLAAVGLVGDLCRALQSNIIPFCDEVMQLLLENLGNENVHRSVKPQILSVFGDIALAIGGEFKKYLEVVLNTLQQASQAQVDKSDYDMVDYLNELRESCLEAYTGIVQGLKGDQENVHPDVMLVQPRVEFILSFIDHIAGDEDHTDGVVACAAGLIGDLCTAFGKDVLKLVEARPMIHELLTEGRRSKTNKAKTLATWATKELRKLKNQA
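FRET biosensor (snurportin 1 IBB flanked by EYFP and cerulean), 50 nM, with compound 5 min, then 0.125 microM importin beta in PBS, 1 mM DTT, 0.02% Tween-20, 0.1% BSA. CFP/YFP ratio read after 45 min at room temperature; pre-read flags interference.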
miR-21 FLuc: qHTS Assay for Modulators of miRNAs and/orActivators of miR-21 | HeLa miR-21 FLuc reporter, luciferase, 48 h | Potency, µM (top dose mostly 38.3 µM), without a hit: at the top dose reporter change, positive = more light | 340,000 tested, under 10 active | AID 2288, 2010; active = well fitted rising curve with a large enough effect; inconclusive = small, poorly fitted or top-dose-only effect; inactive = no such curve, though single readings can be large or run the other way;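 also: % of control where 0% means no effect; miR-21 action dims this reporter so a rising signal means less miR-21 action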
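Using DMEM plus 10% FBS, HeLa miR-21-FLuc cells are incubated with test compounds (final up to about 40uM) for 48 hours; firefly luciferase signal is then imaged following reagent-mediated lysis.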
Starred values were filed as active, the others as inactive. Some of the compounds tested. The share of hits here may be higher or lower than overall.

For COC(=O)[C@@]12CCCN1[C@H](c1ccc(-c3ccc(F)cc3)c(OC)c1)[C@H]1C(=O)N(C)C(=O)[C@H]12 the results were Rango release inh 14% and Rango complex inh -4.8%.
For Cc1ccc(N(CCC#N)C(=O)CSc2nc3ccccc3c(=O)[nH]2)cc1 the results were Rango release inh -12% and Rango complex inh -1.6%.
Cc1csc2nc(CNC(=O)c3cccc(C(F)(F)F)c3)cn12 was read as Rango release inh 6%, GLA inh pH 4.5 2, Rango complex inh 0.1% and miR-21 FLuc -6%.
For O=C(CNC1CCCC1)Nc1cc(Cl)ccc1[N+](=O)[O-] the results were Rango release inh 8%, GLA inh pH 4.5 -13, Rango complex inh 0.0% and miR-21 FLuc -5%.
COc1ccc(CCNC(=O)c2nnn(CC(=O)Nc3cccc(F)c3)c2N)cc1OC was read as Rango release inh -4%, GLA inh pH 4.5 -11, Rango complex inh 0.4% and miR-21 FLuc 1%.
Screening Cc1cccc(C)c1NC(=O)CNC(=O)c1ccc2ccccc2n1 returned Rango release inh -15% and Rango complex inh inconclusive.
CC(C)N(C(=O)Cn1cc(SCC(=O)N2CCCC2)c2ccccc21)C(C)C was read as Rango release inh 8%, GLA inh pH 4.5 6, Rango complex inh -2.3% and miR-21 FLuc -4%.
`COc1ccc(CCN=C(N)NS(=O)(=O)c2ccc(OC)c(OC)c2)cc1OC` gave Rango release inh 1%, Rango complex inh 2.4% and miR-21 FLuc -3%.
Screening CC(=O)Nc1ccc(S(=O)(=O)Oc2cccc(/C=N/N=C3/NC(=O)C(CC(=O)O)S3)c2)cc1 (centres undefined) returned Rango release inh 5%, GLA inh pH 4.5 8, Rango complex inh -1.1% and miR-21 FLuc 0%.
`CCN(c1ccccc1)c1cc(C)nc2ncnn12` gave Rango release inh 0%, GLA inh pH 4.5 -22, Rango complex inh 1.9% and miR-21 FLuc 2%.
For CC(C)c1ccc(NC(=O)Cn2c(=O)oc3cccnc32)cc1 the results were Rango release inh -3%, GLA inh pH 4.5 -1, Rango complex inh 3.1% and miR-21 FLuc -15%.
For c1cn(CCCNc2ncnc3sc4c(c23)CCC4)cn1 the results were Rango release inh -11%, GLA inh pH 4.5 6, Rango complex inh inconclusive and miR-21 FLuc 0%.

Three compounds out of the list, ordered by SMILES length, highest first.
For Cc1ccc(N(CCC#N)C(=O)CSc2nc3ccccc3c(=O)[nH]2)cc1 the results were Rango release inh -12% and Rango complex inh -1.6%.
For O=C(CNC1CCCC1)Nc1cc(Cl)ccc1[N+](=O)[O-] the results were Rango release inh 8%, GLA inh pH 4.5 -13, Rango complex inh 0.0% and miR-21 FLuc -5%.
`CCN(c1ccccc1)c1cc(C)nc2ncnn12` gave Rango release inh 0%, GLA inh pH 4.5 -22, Rango complex inh 1.9% and miR-21 FLuc 2%.

(list continues)
`O=C(NN1CCOCC1)C12CC3CC(CC(C3)C1)C2` gave Rango release inh 5%, GLA inh pH 4.5 -4, Rango complex inh 1.5% and miR-21 FLuc -13%.
`COc1ccc2cc(C(N)=O)/c(=N\NC(=O)c3ccccc3)oc2c1` gave Rango release inh -16%, Rango complex inh inconclusive and miR-21 FLuc -11%.
Screening O=C(Nc1nnc(Cc2ccc(Cl)cc2)s1)c1cccnc1 returned Rango release inh -4%, GLA inh pH 4.5 -6, Rango complex inh -4.6% and miR-21 FLuc -12%.
For O=C(c1ccc(S(=O)(=O)N2CCCCCC2)cc1)N1CCN(c2ccccn2)CC1 the results were Rango release inh -2%, GLA inh pH 4.5 -10, Rango complex inh -7.3% and miR-21 FLuc -2%.
Screening CCc1cc(=O)oc2c(C)c(OC(C)C(=O)NCCCn3ccnc3)ccc12 (centres undefined) returned Rango release inh 14%, Rango complex inh 2.6% and miR-21 FLuc 1%.
For CN1C(=O)C2(Oc3ccccc3C3CC(c4ccccc4)=NN32)c2ccccc21 (centres undefined) the results were Rango release inh -1%, GLA inh pH 4.5 -6, Rango complex inh inconclusive and miR-21 FLuc -39%.
For CC1CCCCC1NC(=O)CN1C(=O)NC(C)(c2cc(F)ccc2F)C1=O (centres undefined) the results were Rango release inh -5% and Rango complex inh -1.1%.
For COc1ccc(OC)c(Nc2nc3nonc3nc2N2CCCC(C)C2)c1 (centres undefined) the results were Rango release inh -1%, GLA inh pH 4.5 -2, Rango complex inh -0.1% and miR-21 FLuc -5%.
Screening CCCCOc1ccc(CSc2nnc(C)n2N)cc1[N+](=O)[O-] returned Rango release inh 3%, GLA inh pH 4.5 6, Rango complex inh 1.2% and miR-21 FLuc -23%.
Screening Cc1nc(NNC(=O)c2ccc([N+](=O)[O-])cc2)cc(-c2ccccc2)n1 returned Rango release inh 10%, GLA inh pH 4.5 -12, Rango complex inh 3.2% and miR-21 FLuc 0%.
Screening O=C1/C(=C/c2ccco2)SC(=S)N1CCC(=O)N1CCCCC1CCO (centres undefined) returned Rango release inh -11%, Rango complex inh -1.6% and miR-21 FLuc -9%.
COc1ccc(NC(=O)C2CC(=O)n3ncnc3N2)cc1 (centres undefined) was read as Rango release inh -3%, GLA inh pH 4.5 2, Rango complex inh 1.8% and miR-21 FLuc 5%.
For c1ccc(-c2nc3c4ccccc4ccn3c2CN2CCCCC2)cc1 the results were Rango release inh 1%, GLA inh pH 4.5 -12, Rango complex inh 1.6% and miR-21 FLuc -10%.
Screening CCN(CC(=O)Nc1ccc(NC(C)=O)cc1)C(=O)c1ccc2c(c1)S(=O)(=O)N=C1CCCCCN12 returned Rango release inh -2% and Rango complex inh -1.0%.
CCOC(=O)c1[nH]c2ccc(OC)cc2c1NS(=O)(=O)c1ccc(Cl)s1 was read as Rango release inh -16%, GLA inh pH 4.5 1, Rango complex inh -2.5% and miR-21 FLuc -9%.
For O=C1OCC2OC(O)C(O)C(O)C2OC(=O)c2cc(O)c(O)c(O)c2-c2c(O)c(O)c3oc(=O)c4c(c(O)c(O)c5oc(=O)c2c3c54)-c2c1cc(O)c(O)c2O (centres undefined) the results were GLA inh pH 4.5 -7 and miR-21 FLuc 12%.
CC(c1ccco1)N(C(=O)COc1ccccc1[N+](=O)[O-])c1ccccn1 (centres undefined) was read as Rango release inh -10%, GLA inh pH 4.5 0, Rango complex inh 1.7% and miR-21 FLuc -15%.
Screening COCCN1Cc2cccc(C(=O)Nc3cccc(C)c3C)c2C1=O returned Rango release inh -6%, GLA inh pH 4.5 6, Rango complex inh 2.4% and miR-21 FLuc 1%.
`Cn1c(N)c(C(=O)COC(=O)C2(c3ccc(Cl)cc3)CCCC2)c(=O)n(C)c1=O` gave Rango release inh -12%, GLA inh pH 4.5 -6, Rango complex inh 0.5% and miR-21 FLuc 8%.
O=[N+]([O-])c1cccc(-c2ccc3nnc(SCc4ccccn4)n3n2)c1 was read as Rango release inh 23%, GLA inh pH 4.5 2, Rango complex inh -3.0% and miR-21 FLuc 15%.
`N#C/C(=C\C=C\c1ccccc1[N+](=O)[O-])c1nc(-c2ccc3c(c2)OCO3)cs1` gave Rango release inh 20%, GLA inh pH 4.5 -9, Rango complex inh 2.5% and miR-21 FLuc 0%.
`COc1ccc(Cc2nnc(SCC(=O)c3ccccc3)o2)cc1` gave Rango release inh 13%, GLA inh pH 4.5 -3, Rango complex inh 1.6% and miR-21 FLuc -12%.
For COc1ccc(C(=O)OCCNC(=O)c2c(Cl)nc3ccccn23)cc1 the results were Rango release inh -4%, GLA inh pH 4.5 -4, Rango complex inh -2.1% and miR-21 FLuc -27%.
Screening Cc1ccc(S(=O)(=O)NC(CC(C)C)C(=O)Oc2ccc3c4c(c(=O)oc3c2)CCC4)cc1 (centres undefined) returned Rango release inh -20%, GLA inh pH 4.5 inconclusive, Rango complex inh inconclusive and miR-21 FLuc -4%.
C=C(C)Cc1c(C)nc(-c2ccccc2)[nH]c1=O was read as Rango release inh 1%, GLA inh pH 4.5 -8, Rango complex inh 3.6% and miR-21 FLuc -39%.
`CC(Oc1ccccc1F)c1nnc(SCC(=O)c2c(N)n(C3CC3)c(=O)[nH]c2=O)o1` (centres undefined) gave Rango release inh 15% and Rango complex inh 1.6%.
Screening O=S(=O)(c1ccc(=S)[nH]c1)N1CCCCC1 returned Rango release inh -1% and Rango complex inh inconclusive.
CCc1ccc2c(c1)C1(SC(NC(C)=O)=NN1C(C)=O)C(=O)N2C(C)C (centres undefined) was read as Rango release inh 9%, GLA inh pH 4.5 3, Rango complex inh -2.5% and miR-21 FLuc 3%.
Screening COCC(C)n1c(C)cc(C(=O)COC(=O)c2ccc(N3CCCC3=O)cc2)c1C (centres undefined) returned Rango release inh -10%, GLA inh pH 4.5 -13, Rango complex inh -4.4% and miR-21 FLuc -7%.
`NC(=O)c1ccc(NS(=O)(=O)c2ccccc2F)cc1` gave Rango release inh -2%, GLA inh pH 4.5 17, Rango complex inh -3.7% and miR-21 FLuc -7%.
Screening Cc1ccc([C@H]2C(C(=O)O)=CC[C@@H](c3cccc(C)c3)N2S(=O)(=O)c2ccc(C)cc2)cc1 returned Rango release inh 5% and Rango complex inh -4.5%.
COc1cc(/C=C/c2nc(N)nc(-c3ccccc3O)n2)cc(OC)c1OC was read as Rango release inh 0%, GLA inh pH 4.5 -12, Rango complex inh -1.9% and miR-21 FLuc 0%.
Screening O=C(C[C@@H]1C/C=C\C[C@H](Cc2ccc(F)cc2)C(=O)OCCNC1=O)NCCO returned Rango release inh 6% and Rango complex inh 4.0%.
`CCOC(=O)c1c(C)n(C)c2ccc(O)c(CN3CCN(C)CC3)c12` gave Rango release inh 11%, GLA inh pH 4.5 -3, Rango complex inh 2.2% and miR-21 FLuc -5%.
`COC(=O)c1ccc(NC(=O)c2snnc2-c2ccccc2)cc1` gave Rango release inh -17%, GLA inh pH 4.5 -5, Rango complex inh -2.6% and miR-21 FLuc -9%.
CC1CCCCN1C(=O)CSc1nnc(-c2cccnc2)n1C1CCCCC1 (centres undefined) was read as Rango release inh -13%, GLA inh pH 4.5 -6, Rango complex inh 0.8% and miR-21 FLuc -4%.
Screening CS(=O)(=O)N1CCN(C(=O)c2cc(-c3cccnc3)nc3ccc(Br)cc23)CC1 returned Rango release inh 2%, GLA inh pH 4.5 -5, Rango complex inh 2.0% and miR-21 FLuc 0%.
Screening CC1Cc2ccccc2N1CC(=O)Nc1cccc(S(N)(=O)=O)c1 (centres undefined) returned Rango release inh -14%, GLA inh pH 4.5 3, Rango complex inh inconclusive and miR-21 FLuc 2%.
Screening Cn1nccc1C(=O)N1CCc2c([nH]c3ccccc23)C1c1ccc(F)cc1 (centres undefined) returned Rango release inh -2%, GLA inh pH 4.5 -5, Rango complex inh 3.2% and miR-21 FLuc 12%.
`CCCCCc1ccc(-c2cn(Cc3ccc([N+](=O)[O-])cc3)nn2)cc1` gave Rango release inh -9%, Rango complex inh 1.0% and miR-21 FLuc 0%.

Filtered by structure, the compounds so far with an NH in an aromatic ring (six)
For Cc1ccc(N(CCC#N)C(=O)CSc2nc3ccccc3c(=O)[nH]2)cc1 the results were Rango release inh -12% and Rango complex inh -1.6%.
CCOC(=O)c1[nH]c2ccc(OC)cc2c1NS(=O)(=O)c1ccc(Cl)s1 was read as Rango release inh -16%, GLA inh pH 4.5 1, Rango complex inh -2.5% and miR-21 FLuc -9%.
C=C(C)Cc1c(C)nc(-c2ccccc2)[nH]c1=O was read as Rango release inh 1%, GLA inh pH 4.5 -8, Rango complex inh 3.6% and miR-21 FLuc -39%.
`CC(Oc1ccccc1F)c1nnc(SCC(=O)c2c(N)n(C3CC3)c(=O)[nH]c2=O)o1` (centres undefined) gave Rango release inh 15% and Rango complex inh 1.6%.
Screening O=S(=O)(c1ccc(=S)[nH]c1)N1CCCCC1 returned Rango release inh -1% and Rango complex inh inconclusive.
Screening Cn1nccc1C(=O)N1CCc2c([nH]c3ccccc23)C1c1ccc(F)cc1 (centres undefined) returned Rango release inh -2%, GLA inh pH 4.5 -5, Rango complex inh 3.2% and miR-21 FLuc 12%.

Screening data: PubChem, National Center for Advancing Translational Sciences (NCATS)
